# Cruzain inh noDet = inhibitors of Trypanosoma cruzi cruzain without detergent; P25779; 200,000 compounds, 2.3% hits; Potency, µM, for inactives: max response, negative = inhibition, usual class: inhibitors; AID 1476; purified cruzain, Z-FR-AMC fluorescence, no detergent; active = well fitted curve in the direction sought with a large enough effect; inconclusive = small, poorly fitted or top-dose-only effect, or another doubt; inactive = no such curve, though single readings can be large; an effect the other way counts as inactive or inconclusive;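 also: plate controls were enzyme without inhibitor for no effect and buffer without enzyme for full effect; nearly all actives have a fitted effect of over 40% in size; top concentration of the series not given in the record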
# Target sequence (P25779 123-467 limits assumed): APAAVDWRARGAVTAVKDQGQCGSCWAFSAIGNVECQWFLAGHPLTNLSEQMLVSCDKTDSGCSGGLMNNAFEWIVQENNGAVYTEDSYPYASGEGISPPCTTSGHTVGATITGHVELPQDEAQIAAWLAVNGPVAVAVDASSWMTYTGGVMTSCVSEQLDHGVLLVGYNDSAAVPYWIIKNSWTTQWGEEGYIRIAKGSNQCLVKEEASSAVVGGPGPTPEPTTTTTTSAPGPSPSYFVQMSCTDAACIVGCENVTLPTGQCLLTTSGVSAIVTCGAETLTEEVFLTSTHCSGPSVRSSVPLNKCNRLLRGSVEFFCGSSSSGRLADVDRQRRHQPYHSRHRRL
#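 Detergent-free condition (0.00005% Triton X-100) in acetate buffer pH 5.5 with DTT. 1.5 nM enzyme and compound were pre-mixed 15 min, then 2 uM Z-FR-AMC substrate added; reaction progress from fluorescence change between first and third reads (60 s).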
# SARS PLpro yeast = blocks SARS-CoV papain-like protease in a yeast assay | S. cerevisiae expressing SARS-CoV PLpro, growth rescue; control for the full effect not named in the record | Potency, µM (series often up to 32.9 µM), for the others: at the highest dose activity, positive = growth rescue | AID 485353 | 330,000 compounds, 0.19% hits; also: 0% is about no effect; nearly all actives have a fitted effect of over 55% in size; growth read by luminescence after 48 h
# NS1 function inh = inhibitors of influenza NS1 protein function. 270,000 compounds, 0.4% hits. AID 2326. S. cerevisiae slowed by influenza A NS1, growth recovery by OD600. Potency, µM (doses to about 46.1 µM), without a hit: at the top dose activity, positive = more growth; also: actives are rising curves; nearly all actives have a fitted effect of over 50% in size
#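 Compounds were scored for reversing the slow growth caused by influenza A NS1 in S. cerevisiae, measured by optical density at 600 nm. Assay medium contained 2% galactose at pH 6.0; NS1-free yeast of the same strain were the positive control.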
# Lassa entry inh = inhibitors of Lassa virus binding or cell entry | Lassa virus pseudotype entry inhibition, cell reporter; control for the full effect not named in the record | Potency, µM (doses to about 37.9 µM), inactives show at the top dose activity change, negative = inhibition, actives largely listed as inhibitors | 300,000 compounds, 1.2% hits; active means well fitted inhibition curve with a large enough effect; inconclusive means small, poorly fitted or top-dose-only effect, or effect the other way; inactive means flat fitted curve, though single readings scatter; tested in HEK293 cells; also: % is scaled to controls: 0 for no effect and ±100 for the full control effect; nearly all actives have a fitted effect of over 50% in size; luciferase read-out
# RE007 growth inh = less growth of the S. pombe RE007 Vpr strain. S. pombe RE007 Vpr strain, BacTiter-Glo ATP luminescence, 24 h; control for the full effect not named in the record. Potency, µM (doses to about 92.2 µM), inactives show at the top dose activity change, negative = less growth. 360,000 compounds, 0.21% hits; active = well fitted falling curve with a large enough effect; inconclusive = small, poorly fitted or top-dose-only effect; inactive = no such curve, though single readings can be large or run the other way;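 also: % is scaled to controls: 0 for no effect and ±100 for the full control effect; nearly all actives have a fitted effect of over 50% in size; the assay follows cell death caused by Vpr and the record does not say whether a fall means rescue or toxicity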
#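 Fission yeast RE007 carrying one integrated HIV-1 vpr copy, seeded at OD 0.01 in PMG+AL medium with 23 nL pinned compound. Grown 24 h at 30 degrees; viability read by BacTiter-Glo luminescence after 5 min.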
# MARV entry inh = inhibitors of Marburg virus binding or cell entry. Potency, µM (titrated, usually from 37.8 µM), without a hit: at the top dose activity change, negative = inhibition, hits mostly inhibitors. AID 540276. 300,000 compounds, 1.8% hits. Marburg virus pseudotyped entry inhibition, cell reporter; control for the full effect not named in the record; about a third of the inactives were read at about 46 µM; active = well fitted inhibition curve with a large enough effect; inconclusive = small, poorly fitted or top-dose-only effect, or effect the other way; inactive = flat fitted curve, though single readings scatter; tested in HEK293 cells; about a fifth of its hits are not listed in these tables; also: % is scaled to controls: 0 for no effect and ±100 for the full control effect; luciferase read-out
# 2A StopGo = lowers the luciferase signal of an FMDV 2A StopGo reporter | human cells with a luciferase reporter of 2A StopGo recoding; control for the full effect not named in the record | Potency, µM (series often up to 57.9 µM), inactives show top-dose signal change, negative = less light | 410,000 compounds, 1.2% hits | AID 1159524; active = well fitted falling curve with a large enough effect; inconclusive = small, poorly fitted or top-dose-only effect; inactive = no such curve, though single readings can be large or run the other way; tested in HEK293T cells; also: % is scaled to controls: 0 for no effect and ±100 for the full control effect; nearly all actives have a fitted effect of over 45% in size; luciferase light after 4 h
# Cruzain inh Det = blocks cruzain activity in presence of Triton detergent; P25779; purified cruzain, Z-FR-AMC fluorescence, 0.01% Triton; Potency, µM, for the others: max response, negative = inhibition, usual class: inhibitors; 200,000 compounds, 0.43% hits; active = well fitted curve in the direction sought with a large enough effect; inconclusive = small, poorly fitted or top-dose-only effect, or another doubt; inactive = no such curve, though single readings can be large; an effect the other way counts as inactive or inconclusive;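 also: plate controls were neutral wells for no effect and buffer without enzyme for full effect; nearly all actives have a fitted effect of over 40% in size; top concentration of the series not given in the record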
#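 Cruzain (1.5 nM) preincubated 15 min at RT with compound in 100 mM sodium acetate pH 5.5, 5 mM DTT, 0.01% Triton X-100. Reaction started with 2 uM Z-FR-AMC; AMC fluorescence (ex 360/em 450 nm) change over 60 s gave rate.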
# Numbers without * were called inactive; ? = inconclusive; . = not tested or not shown; & = joins results of further samples; [ ] = another dose, or the depositor's remark. Unless noted, calls follow the shape of the dose curve; as a rule, active means well fitted rising curve with a large enough effect; inconclusive means small, poorly fitted or top-dose-only effect; inactive means no such curve, though single readings can be large or run the other way. Potency is read from the fitted curve at half-maximal effect.
SMILES,Cruzain inh noDet,SARS PLpro yeast,NS1 function inh,Lassa entry inh,RE007 growth inh,MARV entry inh,2A StopGo,Cruzain inh Det
CC(=O)c1cccc(N2C(=O)C3C(C(=O)Nc4cc(C)on4)C4(C)C=CC3(O4)C2C(=O)NC(C)(C)C)c1 (stereo not given),.,0%,1%,1%[46.1 µM],80%,-1%[46.1 µM],-25%,.
O=C(CCN1CCN(c2ccc(F)cc2)CC1)Nc1ccc(F)cc1,2%,-9%,-18%,-2%,-11%,0%,0%,6.8%
CCn1c2c(c(=O)n3ncc(C(=O)Nc4cccc(Cl)c4C)c13)CN(Cc1ccc(OC)cc1)CC2,18%,.,.,-11%[46.1 µM],.,.,-11%,-7.3%
COc1ccc(CNC(=O)CSc2nc(-c3ccc(OC)cc3)cc(C(F)(F)F)n2)cc1,-8%,.,.,10%[46.1 µM],.,15%[46.1 µM],13%,-3.2%
COCCN1C(=O)c2ccc(C(=O)O)cc2C1=O,3%,5%,-2%,9%,-3%,-6%,0%,-3.4%
O=C(NCCc1ccccc1F)c1ccc2c(c1)OCCO2,.,-2%,-17%,0.89µM*,-9%,.,2.8µM*,.
CCCc1nnc2c(N(C)S(=O)(=O)c3ccc(C)cc3)nc3ccccc3n12,-4%,18%,10%,0%,1%,-3%,-10%,-1.1%
CCCC12CN3CCN(C1)CC(CCC)(C3)C2=O,.,0%,4%,3%,-1%,0%[46.1 µM],-10%,.
CCOC(=O)c1nn(-c2ccc(F)cc2)c2nc(-c3ccccc3)c(C#N)c(=O)n12,-11%,2%,9%,2%,12%,3%,-7%,-8.7%
O=[N+]([O-])c1ccc2nccn2c1,-7%,-1%,11%,1%,-5%,-4%,16%,4.9%
COC(=O)c1ccccc1NC(=O)c1cccc(NC(=O)CSCc2ccccc2)c1C,3%,2%,17%,-18%,2%,4%,.,4.6%
CCCCOC(=O)c1cc(=O)[nH]c2ccccc12,-6%,-3%,23%&-7%,2%,-13%,2%&2%,15%,-2.0%
O=C(Nc1cc(C(F)(F)F)ccc1N1CCCC1)c1ccc2c(c1)OCO2,4%,-28%,-52%,-12%,-9%,?,-23%,-11%
CCOC(=O)/C(C(N)=NCC(C)C)=C(/O)c1ccccc1,-7%,-1%,-4%,-14%,3%,-36%,46%[activator],0.6%
Cc1cc(N2C(=O)C=CC2=O)c([N+](=O)[O-])cc1C,-25%,-78%,-36%,-20%,?,?,?,-5.3%
COC(=O)C(C)Sc1nc(N)c(NC(=O)c2ccco2)c(=O)[nH]1 (stereo not given),.,-1%,?,.,2%,.,-18%,.
CN(CC(=O)Nc1ccc(Cl)cc1)C(=O)CNC(=O)c1ccc(Br)o1,.,-7%,.,9%,-8%,3%,-14%,.
Clc1ccc(-c2csc(N3CCc4ccccc4C3)n2)cc1,?,0%,14%,8%,-7%,12%[46.1 µM],12%,-2.4%
COc1cc(C(=O)NCCOc2cc(C)cc(C)c2)c(Br)c(OC)c1OC,?,-15%,-15%,?,-11%,-26%,0%,-1.8%
O=C1c2ccccc2C(=O)N1CCC(O)C[N+](=O)[O-] (stereo not given),.,-2%,0%,8%[46.1 µM],-13%,?,-6%,.

# An excerpt from above in order of formula weight, smallest number first.
SMILES,Cruzain inh noDet,SARS PLpro yeast,NS1 function inh,Lassa entry inh,RE007 growth inh,MARV entry inh,2A StopGo,Cruzain inh Det
CCCCOC(=O)c1cc(=O)[nH]c2ccccc12,-6%,-3%,23%&-7%,2%,-13%,2%&2%,15%,-2.0%
Cc1cc(N2C(=O)C=CC2=O)c([N+](=O)[O-])cc1C,-25%,-78%,-36%,-20%,?,?,?,-5.3%
O=C1c2ccccc2C(=O)N1CCC(O)C[N+](=O)[O-] (stereo not given),.,-2%,0%,8%[46.1 µM],-13%,?,-6%,.
CCOC(=O)/C(C(N)=NCC(C)C)=C(/O)c1ccccc1,-7%,-1%,-4%,-14%,3%,-36%,46%[activator],0.6%
Clc1ccc(-c2csc(N3CCc4ccccc4C3)n2)cc1,?,0%,14%,8%,-7%,12%[46.1 µM],12%,-2.4%
COC(=O)C(C)Sc1nc(N)c(NC(=O)c2ccco2)c(=O)[nH]1 (stereo not given),.,-1%,?,.,2%,.,-18%,.
CCCc1nnc2c(N(C)S(=O)(=O)c3ccc(C)cc3)nc3ccccc3n12,-4%,18%,10%,0%,1%,-3%,-10%,-1.1%
CCOC(=O)c1nn(-c2ccc(F)cc2)c2nc(-c3ccccc3)c(C#N)c(=O)n12,-11%,2%,9%,2%,12%,3%,-7%,-8.7%
COc1cc(C(=O)NCCOc2cc(C)cc(C)c2)c(Br)c(OC)c1OC,?,-15%,-15%,?,-11%,-26%,0%,-1.8%
COc1ccc(CNC(=O)CSc2nc(-c3ccc(OC)cc3)cc(C(F)(F)F)n2)cc1,-8%,.,.,10%[46.1 µM],.,15%[46.1 µM],13%,-3.2%
CCn1c2c(c(=O)n3ncc(C(=O)Nc4cccc(Cl)c4C)c13)CN(Cc1ccc(OC)cc1)CC2,18%,.,.,-11%[46.1 µM],.,.,-11%,-7.3%
CC(=O)c1cccc(N2C(=O)C3C(C(=O)Nc4cc(C)on4)C4(C)C=CC3(O4)C2C(=O)NC(C)(C)C)c1 (stereo not given),.,0%,1%,1%[46.1 µM],80%,-1%[46.1 µM],-25%,.

# (cont.)
SMILES,Cruzain inh noDet,SARS PLpro yeast,NS1 function inh,Lassa entry inh,RE007 growth inh,MARV entry inh,2A StopGo,Cruzain inh Det
CCOC(=O)C1(Cc2ccccc2)CCN(Cc2cc(=O)c3ccccc3[nH]2)CC1,.,0%,-1%,.,1%,.,-23%,.
CCOC(=O)C1CCCCN1S(=O)(=O)c1ccc2c(c1)CC(C)N2C(=O)C1CCC1 (stereo not given),.,0%,-20%,.,-1%,.,?,.
C=CCSc1nc2c(c(-c3ccsc3)c1C#N)CN(C)CC2,.,0%,8%,1%,-9%,2%,-23%,.
COc1ccc(C(CNC(=O)c2oc3ccc(OC)cc3c2C)N2CCCC2)cc1 (stereo not given),.,0%,.,?,-8%,?,-12%,.
COc1ccc(C(=O)NC(=S)Nc2ccc(S(=O)(=O)Nc3cc(OC)ncn3)cc2)cc1,.,-1%,6%,?,3%,30%[46.1 µM],31%[activator],.
Cc1ccc(C(F)(F)F)cc1NC(N)=S,.,0%,.,0%[46.1 µM],15%,0%[46.1 µM],-8%,.
CCOc1ccc(S(=O)(=O)NCC(=O)N(C)Cc2cccnc2)cc1,-4%,8%,-7%,-7%,-9%,-2%,-5%,2.6%
CCN1/C(=C2\C(=O)N(C)C(=S)N2C)C=Cc2cc(OC)ccc21,-5%,-14%,2%,-8%,-7%,?,-5%,-0.7%
CCOC(=O)C1CCC(CN(Cc2ccc(Cl)cc2)S(=O)(=O)c2cccc(Cl)c2C)CC1 (stereo not given),19%,.,.,19%[46.1 µM],.,.,-20%,0.0%
CCOc1ccc(CSC2=NCCN2)cc1Cl,-3%,-1%,5%,?,-6%,15µM*,-14%,8.2%
CCc1cccc(C)c1N1C(=O)CN(Cc2ccccc2)C1=S,.,-3%,-5%,9%[46.1 µM],6%,?,?,.
CS(=O)(=O)c1ccc(-n2nnc3ccccc32)c([N+](=O)[O-])c1,.,2%,22%,-27%[46.1 µM],-7%,?,-8%,.
O=C(Cc1cccs1)N/N=C/C=C/c1ccco1,1%,-1%,1%,?,18%,17%,42%[activator],-12%
COc1ccc(C(=O)Nc2nc3c(s2)CCCC3)cc1S(=O)(=O)N1CCCc2ccccc21,?,14%,13µM*,?,-18%,?,16%,-6.1%

# Screening results: PubChem, National Center for Advancing Translational Sciences (NCATS)
